Vaccinia inh: blocks a specific stage of Vaccinia orthopoxvirus infection, primary screen, cell-based, single point; Vaccinia-infected cells, mCherry/Venus stage reporter fluorescence; active compounds read low; some inactives read as strong as hits; activity change (mCherry), % (no concentration beside the values); 0.01% of 89,000 active; AID 1053133, 2014;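 active means mCherry past -33% and 40 or more points under the early reporter, replicates agreeing; inconclusive means past -33% without that gap or agreement; tested in A549 cells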;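 further: scaled between vehicle wells and reference inhibitor wells; 23 nL library stock went into each well; one replicate is shown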
Vaccinia inh Venus: further read-out of Vaccinia inh, marked with its call; activity change (Venus), %; measured here: Venus reporter, other viral stage;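 negative = less Venus signal; first of two replicates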
Active calls of the source: *; u = inconclusive; x = not tested or not shown; & = joins results of further samples. These rows are one share of the data; count on the stated rates, not on these rows.

Every second line gives: Vaccinia inh, Vaccinia inh Venus
- C[C@@H]1CCCCO[C@H](CN(C)C)[C@H](C)CN([C@@H](C)CO)C(=O)c2cc(NC(=O)Cc3ccccc3)ccc2O1
→ -4.4, -8.5
- CCC(=O)Nc1ccc2c(c1)OC[C@@H](C)N(Cc1ccccc1F)C[C@H](C)[C@H](OC)CN(C)C2=O
→ u, x
- Cc1ccc(S(=O)(=O)Nc2cccc3c2O[C@H](CN(C)S(=O)(=O)c2cn(C)cn2)[C@@H](C)CN([C@H](C)CO)C3=O)cc1
→ 4.5, 14.8
- CO[C@H]1CC[C@@H]2CCOc3c(C#N)cccc3C(=O)N(C)C[C@H](c3ccccc3)CC(=O)N(C)C[C@@H]1O2
→ 11.6, 1.4
- O=C1N[C@@H](Cc2ccccc2)COCc2cn(nn2)CC[C@@H]1Cc1ccccc1
→ 12.1, 11.6
- CNC[C@H]1Oc2ncc(C#CCC3CCCC3)cc2C(=O)N([C@@H](C)CO)C[C@H]1C
→ -20.2, -26.9
- COc1cccc(CN(C)C[C@@H]2OCc3ccccc3-c3c(n(C)c4ccccc34)C(=O)N([C@H](C)CO)C[C@@H]2C)c1
→ -33.1, -32.5
- O=C(C1CCCC1)N1CCCCN2[C@H](CO)[C@@H](c3ccc(C#CC4CC4)cc3)[C@H]2C1
→ -26.6, -13.0
- C[C@H](NC(=O)C[C@@H]1C[C@@H]2c3cc(N(C)C)ccc3O[C@@H]2[C@H](CO)O1)c1ccccc1
→ 2.4, 5.0
- C[C@H]1CN([C@@H](C)CO)C(=O)CCCn2nncc2CO[C@@H]1CN(C)Cc1cccnc1
→ 16.0, 13.8
- O=C(NCc1nc2ccccc2[nH]1)C1=C[C@@H](c2ccc3c(c2)OCO3)C[C@@H](OCc2ccc(CO)cc2)O1
→ 6.1, 5.3
- C[C@@H]1CN([C@H](C)CO)C(=O)c2cccc(NC(=O)NC3CCCCC3)c2O[C@H]1CN(C)S(=O)(=O)c1cn(C)cn1
→ 7.5, 2.9
- O=C(Nc1ccc(F)cc1)N1C[C@@H]2[C@H](c3ccccc31)[C@@H](CO)N2Cc1ccccc1
→ -31.0, -17.1
- Cc1noc(C)c1NC(=O)Nc1ccc2c(c1)C(=O)N([C@@H](C)CO)C[C@H](C)[C@H](CN(C)Cc1ccc3c(c1)OCO3)O2
→ -0.8, -6.2
- O=C(Cc1cccnc1)N1CCCCN2[C@H](CO)[C@H](c3ccc(C#CC4CC4)cc3)[C@@H]2C1
→ -2.2, -1.6
- O=C([C@H]1[C@H](CO)[C@H]2Cn3c(ccc(/C=C/c4ccccc4)c3=O)[C@H]2N1CC1CC1)N1CCCCC1
→ u, x
- C[C@H]1CN([C@@H](C)CO)C(=O)c2cc(C#CC3CCCC3)cnc2O[C@@H]1CN(C)C(=O)Cc1ccccn1
→ -1.5, -6.3
- O=C(C[C@@H]1C[C@H]2c3cc(NC(=O)C4CCC4)ccc3O[C@H]2[C@H](CO)O1)NC1CCCC1
→ 0.7, 10.7
- CCCC(=O)Nc1ccc2c(c1)C(=O)N(C)C[C@H](OC)[C@@H](C)CN(Cc1ccccc1F)[C@H](C)CO2
→ -32.2, -28.0
- CCC(=O)Nc1ccc2c(c1)C(=O)N(C)[C@H]1CC[C@H](CC(=O)O)O[C@@H]1CO2
→ -5.2, -5.2
- O=C(C[C@@H]1C=C[C@H](NC(=O)c2cccnc2)[C@@H](CO)O1)NCc1ccncn1
→ 39.2, 34.5
- Cc1ccc(S(=O)(=O)N(C)C[C@H]2Oc3ccc(N(C)C)cc3C(=O)N([C@@H](C)CO)C[C@H]2C)cc1
→ -0.8, -3.1
- NCC[C@@H]1CC[C@@H](NC(=O)Nc2ccc(F)cc2)[C@H](CO)O1
→ 15.7, 26.4
- C[C@@H]1CN([C@@H](C)CO)C(=O)Cc2cc(NC(=O)C3CCCCC3)ccc2O[C@H]1CN(C)C
→ 7.1, 5.3
- O=C(C1CCCCC1)N1C[C@@H]2N[C@H](C1)C2c1ccc(-c2cccc(F)c2)cc1 (stereo partly drawn)
→ u, -2.6
- OC[C@H]1[C@H](c2ccc(-c3ccccc3F)cc2)[C@H]2CN(Cc3cncnc3)CCCCN21
→ -16.4, -17.6
- COc1ccc(CN(C)C[C@@H]2Oc3ccc(NS(=O)(=O)c4c(C)noc4C)cc3CC(=O)N([C@H](C)CO)C[C@H]2C)cc1
→ 5.1, 2.6
- COCC(=O)N(C)C[C@@H]1Oc2ncc(C#Cc3ccccc3OC)cc2C(=O)N([C@H](C)CO)C[C@H]1C
→ 8.1, 4.9
- CN(C)c1ccc2c(c1)[C@H]1C[C@H](CC(=O)NCc3ccncc3)O[C@H](CO)[C@H]1O2
→ 1.6, 0.7
- COc1ccc(NC(=O)Nc2cccc3c2O[C@@H](CN(C)Cc2ccc(C(=O)Nc4ccccc4N)cc2)[C@@H](C)CN([C@@H](C)CO)C3=O)cc1
→ 23.0, 13.3

(list continues)
Every second line gives: Vaccinia inh, Vaccinia inh Venus
- CN1C(=O)c2cc(NC(=O)Cc3cccs3)ccc2OC[C@H]2O[C@H](CC(=O)NCCCN3CCOCC3)CC[C@H]21
→ 7.4, 0.1
- COc1ccc(S(=O)(=O)Nc2ccc3c(c2)C(=O)N([C@H](C)CO)C[C@H](C)[C@@H](CN(C)S(=O)(=O)c2ccccc2)O3)cc1
→ 18.6, 5.3
- COCCNC(=O)C[C@H]1C[C@H]2c3cc(NC(=O)C4CCC4)ccc3O[C@H]2[C@@H](CO)O1
→ 8.1, 6.1
- C[C@@H]1CN([C@@H](C)CO)C(=O)c2cc(NC(=O)c3ccccc3)ccc2O[C@@H](C)CCCCO[C@H]1CN(C)C(=O)Cc1ccccc1
→ u, x
- COc1ccc(S(=O)(=O)N(C)C[C@H]2Oc3c(NC(=O)Nc4ccc5c(c4)OCO5)cccc3C(=O)N([C@H](C)CO)C[C@H]2C)cc1
→ 3.8, -4.2
- COc1cccc(C#Cc2ccc3c(c2)[C@H]2[C@H](CCN2S(=O)(=O)c2ccc(C)cc2)[C@H](CO)N3)c1
→ 2.1, 0.1
- C[C@@H]1CN([C@@H](C)CO)C(=O)c2cc(NC(=O)Cc3ccccc3)ccc2O[C@H]1CN(C)S(=O)(=O)c1ccccc1
→ 0.5, 3.2
- O=C(O)C[C@H]1C[C@@H]2c3cc(NC(=O)Nc4ccc(C(F)(F)F)cc4)ccc3O[C@@H]2[C@@H](CO)O1
→ -1.3, 3.2
- CC(=O)N1CC2(C1)[C@@H](c1ccc(-c3ccccc3C)cc1)[C@@H](CO)N2C(=O)CC1CC1
→ 8.4, 9.8
- CCCNC(=O)N1[C@H](CO)[C@@H](c2ccccc2C2=CCCCC2)[C@@H]1C#N
→ -6.7, -2.5
- C[C@@H]1CN([C@H](C)CO)C(=O)c2cc(C#Cc3ccc(F)cc3)cnc2O[C@H]1CN(C)CC1CCOCC1
→ -32.7, -21.9
- C[C@@H]1CCCCO[C@H](CN(C)Cc2ccc3c(c2)OCO3)[C@H](C)CN([C@H](C)CO)C(=O)c2cc(NC(=O)Nc3ccccc3)ccc2O1
→ u, x
- COc1ccccc1-c1ccc2n(c1=O)C[C@H]1[C@H](CO)[C@@H](C(=O)N[C@H](C)c3ccccc3)[C@@H]2N1C
→ 9.8, 5.9
- O=C(NC1CCCC1)N[C@@H]1C=C[C@@H](CC(=O)N2CCOCC2)O[C@H]1CO
→ -11.0, 10.7
- CO[C@H]1CN(C)C(=O)c2ccc(NC(=O)C3CC3)cc2OC[C@@H](C)N(Cc2ccccc2)C[C@@H]1C
→ -25.5, -8.0
- CC(C)(O)C#Cc1cccc(-c2nc(C(=O)NCCCN3CCOCC3)cc3c2[C@@H](CCO)N(S(=O)C(C)(C)C)C3)c1 (stereo partly drawn)
→ 16.9, 19.1
- CC(C)NC(=O)N(C)C[C@@H]1Oc2ncc(-c3cc4ccccc4o3)cc2C(=O)N([C@H](C)CO)C[C@@H]1C
→ 0.8, 3.9
- C[C@H]1CN([C@@H](C)CO)C(=O)c2cc(C#CC3CCCC3)cnc2O[C@H]1CN(C)C(=O)c1ccncc1
→ -2.3, -2.0
- Cn1cnc(S(=O)(=O)N2[C@@H]3CNC[C@H]2C3c2ccc(-c3ccccc3F)cc2)c1 (stereo partly drawn)
→ -2.0&13.5, 0.6&21.6
- COc1ccc(CN(C)C[C@@H]2OCCCC[C@H](C)Oc3ccc(NS(=O)(=O)c4cccs4)cc3C(=O)N([C@@H](C)CO)C[C@H]2C)cc1
→ -21.6, -11.6
- COc1cccc(NC(=O)N2CC(=O)N3[C@@H](CO)[C@H](c4ccc(C5=CCCCC5)cc4)[C@@H]3C2)c1
→ -31.7, -27.8
- CCCN1C[C@H](C)[C@H](OC)CN(C)C(=O)c2ccc(NC(=O)COC)cc2OC[C@@H]1C
→ -0.6, 2.6
- COc1ccccc1CNC(=O)C[C@H]1CC[C@@H](NC(=O)CC2CC2)[C@@H](CO)O1
→ -3.3, 4.4
- C[C@@H]1CCCCO[C@H](CN(C)Cc2ccc(C(F)(F)F)cc2)[C@H](C)CN([C@H](C)CO)C(=O)c2cc(NC(=O)Nc3ccc4c(c3)OCO4)ccc2O1
→ -2.1, -11.2
- C[C@@H]1CCCCO[C@@H](CN(C)C(=O)Nc2ccc3c(c2)OCO3)[C@@H](C)CN([C@H](C)CO)C(=O)c2cc(NC(=O)Nc3ccc(C(F)(F)F)cc3)ccc2O1
→ 13.6, 13.8
- C[C@H](CO)N1C[C@H](C)[C@@H](CN(C)CC2CCOCC2)Oc2cc(C#CC3CC3)ccc2S1(=O)=O
→ u, x
- C[C@@H]1CN([C@H](C)CO)C(=O)c2cc(NC(=O)Nc3ccc(F)cc3)ccc2O[C@H]1CN(C)S(=O)(=O)c1ccc(Cl)cc1
→ -18.5, -12.1
- O=C(N[C@H]1C=C[C@H](CC(=O)N2CCOCC2)O[C@@H]1CO)c1ccc2c(c1)OCO2
→ 8.0, 5.1
- COc1ccc(NC(=O)N(C)C[C@H]2Oc3ccc(NC(=O)Nc4ccc(C(F)(F)F)cc4)cc3C(=O)N([C@H](C)CO)C[C@@H]2C)cc1
→ 13.7, 12.8
- CCCNC(=O)C[C@H]1CC[C@@H]2[C@H](COC[C@H](O)CN2C(=O)Nc2ccccc2OC)O1
→ -6.0, -1.0

Next compounds:
Every second line gives: Vaccinia inh, Vaccinia inh Venus
- C[C@H](CO)N1C[C@H](C)[C@@H](CN(C)Cc2ccncc2)OCCCC[C@H](C)Oc2ccc(NC(=O)c3ccccc3)cc2C1=O
→ -3.3, -0.2
- CNC[C@@H]1Oc2ccc(NC(=O)Nc3cccc4ccccc34)cc2C(=O)N([C@H](C)CO)C[C@@H]1C
→ 10.7, 8.1
- C[C@H]1CN([C@@H](C)CO)C(=O)c2cc(NC(=O)C3CC3)ccc2O[C@@H]1CN(C)C(=O)Nc1ccccc1
→ 8.6, 8.3
- O=C(C[C@@H]1C[C@@H]2c3cc(NC(=O)c4cccnc4)ccc3O[C@@H]2[C@@H](CO)O1)NCc1cccnc1
→ 11.3, 6.8
- Cc1ccc(S(=O)(=O)N(C)C[C@@H]2OCCCC[C@H](C)Oc3ccc(NS(=O)(=O)c4cn(C)cn4)cc3C(=O)N([C@@H](C)CO)C[C@H]2C)cc1
→ 10.5, 2.5
- COCC#Cc1ccc2c(c1)O[C@@H](CN(C)Cc1ccc3c(c1)OCO3)[C@@H](C)CN([C@H](C)CO)S2(=O)=O
→ -18.5, -11.4
- O=C(C[C@H]1C[C@@H]2c3cc(NC(=O)C4CCOCC4)ccc3O[C@@H]2[C@H](CO)O1)NCCc1ccccc1
→ 25.3, 18.7
- O=C(C[C@H]1CC[C@H]2[C@@H](COC[C@@H](O)CN2C(=O)Nc2ccc(Cl)cc2)O1)N1CCCCC1
→ -10.1, 2.4
- C[C@H]1CN([C@@H](C)CO)C(=O)c2cccc(NS(=O)(=O)c3ccc(F)cc3)c2O[C@@H]1CN(C)C(=O)Nc1ccc(F)cc1
→ 3.7, 1.0
- C[C@H]1CCCCO[C@@H](CN(C)C(=O)Nc2ccccc2)[C@@H](C)CN([C@@H](C)CO)C(=O)c2cc(NC(=O)Cc3ccccc3)ccc2O1
→ -28.7, -26.9
- NCC[C@@H]1CC[C@@H](NC(=O)NC2CCCCC2)[C@H](CO)O1
→ 1.6, 4.0
- CCC(=O)N1C[C@H]2[C@@H](c3ccccc31)[C@@H](CO)N2Cc1ccccc1Cl
→ 3.0, -0.4
- C[C@H](CO)N1C[C@H](C)[C@@H](CN(C)C(=O)Nc2cccc3ccccc23)Oc2ccc(NC(=O)CCC(F)(F)F)cc2C1=O
→ 13.1, 7.9
- COc1ccc(-c2ccc3c(c2)[C@H]2[C@H](CCN2Cc2cncnc2)[C@H](CO)N3)cc1
→ -29.1, -6.4
- Cc1ccc(S(=O)(=O)Nc2ccc3c(c2)C(=O)N([C@H](C)CO)C[C@@H](C)[C@@H](CN(C)S(=O)(=O)c2ccccc2)OCCCC[C@@H](C)O3)cc1
→ -29.8, -16.5
- C[C@H]1CN([C@@H](C)CO)C(=O)Cc2cc(NC(=O)Cc3ccccc3)ccc2O[C@H]1CN(C)Cc1ccc(Oc2ccccc2)cc1
→ u, x
- CN(C)C(=O)c1cccc(-c2ccc3c(c2)[C@@H]2[C@@H](CCN2C(=O)c2ccccc2)[C@H](CO)N3C)c1
→ -30.3, -18.4
- O=C(C[C@@H]1C[C@@H]2c3cc(NC(=O)C4CCC4)ccc3O[C@@H]2[C@@H](CO)O1)NCCN1CCCCC1
→ 6.6, 4.3
- CC(C)C#Cc1cnc2c(c1)C(=O)N([C@@H](C)CO)C[C@@H](C)[C@@H](CN(C)C(=O)c1ccccc1)O2
→ -2.0, -2.6

Some values from above:
Entry of C[C@H]1CN([C@@H](C)CO)C(=O)c2cc(NC(=O)C3CC3)ccc2O[C@@H]1CN(C)C(=O)Nc1ccccc1 in Vaccinia inh Venus: 8.3
Entry of CC(C)C#Cc1cnc2c(c1)C(=O)N([C@@H](C)CO)C[C@@H](C)[C@@H](CN(C)C(=O)c1ccccc1)O2 in Vaccinia inh: -2.0
Entry of NCC[C@@H]1CC[C@@H](NC(=O)NC2CCCCC2)[C@H](CO)O1 in Vaccinia inh Venus: 4.0
